AmpC nodet inh: AmpC beta-lactamase inhibition, detergent-free assay; actives 1.8% (n = 71,000); AmpC nitrocefin hydrolysis, absorbance 480 nm, no detergent; potencies from a single point are estimates; Potency, µM (titrated, usually from 28.7 µM), inactives show top-dose activity change, negative = inhibition; P00811; active = falling curve, for most hits resting on a single point; inconclusive = weak or doubtful change; inactive = flat or rising curve; also: % of control where 0% means no effect; about half of the hits show no inhibition at the top dose; a quarter of the inactives give rising signals
Target sequence (P00811 whole entry, looked up): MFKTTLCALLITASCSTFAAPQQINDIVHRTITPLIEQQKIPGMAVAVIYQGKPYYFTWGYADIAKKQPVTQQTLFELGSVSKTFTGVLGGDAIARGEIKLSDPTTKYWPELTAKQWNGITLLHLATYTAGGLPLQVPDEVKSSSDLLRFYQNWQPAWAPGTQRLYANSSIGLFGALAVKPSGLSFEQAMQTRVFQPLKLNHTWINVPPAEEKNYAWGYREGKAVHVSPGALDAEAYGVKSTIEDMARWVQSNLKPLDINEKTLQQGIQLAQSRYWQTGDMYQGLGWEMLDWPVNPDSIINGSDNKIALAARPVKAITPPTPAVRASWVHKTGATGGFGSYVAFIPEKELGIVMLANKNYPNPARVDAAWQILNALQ
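AmpC, 20 mM phosphate pH 7.0; 15 min cpd preinc, RT; start with nitrocefin (800 uM stock); A480 kinetic read, 20 s intervals, 4 min. No-enzyme wells = negative control.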
* marks the source's active call; other numbers are inactive results; [ ] = dose if it differs, or a comment. Potency is read from the fitted curve at half-maximal effect. An excerpt, so the mix of outcomes need not match the whole.

SMILES | AmpC nodet inh
Cc1c(NC(=O)c2cnn3c2NC(c2ccco2)CC3C(F)(F)F)c(=O)n(-c2ccccc2)n1C (centres undefined) | 41%
OC(COCC1CC=CCC1)Cn1cnc2ccccc21 (centres undefined) | 31%
COc1cccc(Cn2nnc(C(=O)NCc3ccccc3Cl)c2N)c1 | 4µM*[single pt active]
CCS(=O)(=O)NCc1csc(-c2ccccc2)n1 | 10%
O=C(Cc1cccs1)N1CCN(C(=O)C2CCCO2)CC1 (centres undefined) | 13%
Cc1ccc2c(c1)NCC(C(=O)NC1CCCCC1)O2 (centres undefined) | 10%
CC(=O)N1CSCC1C(=O)O (centres undefined) | -4%
c1coc(CNc2nc3sc4c(c3c3ncnn23)CCCC4)c1 | 68%
COc1ccc(NC(=O)c2cc(C3CC3)on2)c(OC)c1 | -6%
C/C(C=O)=C/c1ccccc1 | -2%
COC(=O)c1ccc(C)c(NC(=O)c2c(-c3ccccc3)noc2C)c1 | -6%
CCCCN(CCCNc1ncnc2nc[nH]c12)c1ccccc1 | 11%
CCN(CC)S(=O)(=O)c1ccc(S(=O)(=O)Nc2cc3c(cc2C(C)=O)OCO3)cc1 | 26%
O=C1CC(C(=O)N2CCOCC2)C2(CCCC2)O1 (centres undefined) | -5%
COc1cc(O)c2c(c1)OC(C)(C)CC2=O | 0%
COCCNc1ccnc(-c2ccccc2CN(C)C)n1 | -7%
COc1ccc(-n2nnnc2SCC(=O)Nc2cccc(C)n2)cc1OC | 6%
COCCN1C(=O)c2ccc(C(=O)NCc3cccnc3)cc2C1=O | 0%
Cc1nc2ccccc2c2oc(C(=O)N3CCN(C(=O)c4ccco4)CC3)cc12 | 104%
CC(C)Cn1c(=O)c2c(c3ccccc31)OC(C)C(=O)N2 (centres undefined) | 5%

Shown in CSV form: entries from further up.
SMILES,AmpC nodet inh
Cc1nc2ccccc2c2oc(C(=O)N3CCN(C(=O)c4ccco4)CC3)cc12,104%
c1coc(CNc2nc3sc4c(c3c3ncnn23)CCCC4)c1,68%
COc1ccc(-n2nnnc2SCC(=O)Nc2cccc(C)n2)cc1OC,6%

Going on with the list:
SMILES | AmpC nodet inh
COc1ccc(C(=O)NCC(=O)OCC(=O)NC(=O)NC2CCCCC2)cc1OC | 20%
CC(C)OC(=O)c1c(NC(=O)CCn2nnc3ccccc32)sc2c1CCCC2 | 33%
CC(=O)NC1(C(F)(F)F)NC(=O)N(CC(C)C)C1=O (centres undefined) | -4%
O=CN(Cc1ccco1)C1(C(=O)NC2CCCCC2)CCCCC1 | 0%
CCNC(=O)Cn1cnc2c1c(=O)n(C)c(=O)n2C | 1%
COC(=O)/C=C/S(=O)(=O)c1ccc(NC(C)=O)cc1 | 2%
O=C(Nc1nnc(SCc2ccccc2)s1)c1cccs1 | -15%
COc1ccc(C2c3c(oc4ccccc4c3=O)C(=O)N2CCN2CCOCC2)cc1OC (centres undefined) | 42%
O=C(Nc1cccc2ccccc12)OC1C=CS(=O)(=O)C1 (centres undefined) | 112%
O=C(COc1ccccc1)OCc1cc2ccccc2[nH]c1=O | 4%
Cc1cc(C)c2[nH]c(=O)c(CN(Cc3nnnn3C3CCCC3)C3CCCCC3)cc2c1 | 9%
CN(C)c1ccc2nc3c(C(=O)O)cc(=O)c(O)c-3oc2c1 | -2%[5.75 µM]
COc1cc(-n2nc(C)c3c2OC(N)=C(C#N)C3c2ccccc2)c(Cl)c(Br)c1O (centres undefined) | -5%
CN(C(=O)c1ccccc1C(=O)O)C1CC(C)(C)NC(C)(C)C1 | -5%
O=C1CCCN1CCC1CCN(C2CC(=O)N(c3ccc(Cl)cc3)C2=O)CC1 (centres undefined) | 68%
O=C(NC1CCSC1=O)c1cccc(C(=O)NC2CCSC2=O)c1 (centres undefined) | -17%
CCOC(=O)c1c(C)[nH]c(C)c1C(=O)CSc1nnc(-c2cc(OC)c(OC)c(OC)c2)o1 | 47%
CN(C)c1nc2c(c(=O)[nH]c(=O)n2C)n1Cc1ccc(F)cc1 | 0%
Cn1ccc(O)c(C#N)c1=O | -3%
Cc1ccc2cc(C(c3nnnn3CC3CCCO3)N3CCc4ccccc4C3)c(=O)[nH]c2c1 (centres undefined) | 55%
Cc1ccccc1OCC(=O)Nc1ccccc1N1CCOCC1 | 25%
N#Cc1cccc(NC(=O)N2CCCC3(CCN(C(=O)c4cnccn4)CC3)C2)c1 | 0%
COc1ccc(OC)c(NC(=O)CSc2nnnn2-c2ccc3c(c2)OCO3)c1 | -21%
CC(C)C(C(=O)Nc1ccc(N2CCOCC2)cc1)N1C(=O)c2ccccc2C1=O (centres undefined) | 15%
N#CCCn1c(=O)c(-c2cccc(C#N)c2)nc2cnc(Oc3ccccc3)nc21 | 27%
Cc1ccc(Cl)cc1N1CCN(C(c2cccnc2)c2nnnn2C2CCCCC2)CC1 (centres undefined) | 98%
COCc1nnc(NC(=O)c2ccc(S(=O)(=O)N3CCCCCC3)cc2)o1 | -9%
CCOC(=O)C1=C(C)Nc2nc3ccccc3n2C1c1ccncc1 (centres undefined) | 19%
Cc1ccc(S(=O)(=O)Cn2nnnc2C(C(C)C)N2CCc3ccccc3C2)cc1 (centres undefined) | 41%
O=C(CN1C(=O)NC(Cc2ccccc2)C1=O)NC(=O)NC1CCCCC1 (centres undefined) | 49%
c1ccc(CNc2ccnc(-c3ccc4c(c3)OCO4)n2)cc1 | 30%
CC(=O)Nc1ccc(-c2cc(C(=O)O)c3cc4ccccc4cc3n2)cc1 | -9%[5.75 µM]
O=C(Nc1ccc(Cl)cc1)N(Cc1nnc2n1CCCCC2)c1ccccc1 | 69%
CCN1C(=O)CC(N2CCC(Cc3ccccc3)CC2)C1=O (centres undefined) | 69%
CCN(CCNC(=O)Cn1cc2c(n1)CCCC2)c1ccccc1 | 62%
COc1ccc(-c2noc(C3CCCN(C(=O)c4ccccc4OC)C3)n2)cc1OC (centres undefined) | 119%
O=C(NCc1ccc2c(c1)OCO2)c1cccc(N2CCCC2=O)c1 | 1%
Cn1cc(-c2nc3ccccc3[nH]2)c2ccccc21 | -2%
Cc1cc2cc(CNC(=O)c3ccc4c(c3)OCO4)ccc2n1C | -8%
O=C(O)CC[C@@H](C(=O)O)N1C(=O)[C@@H]2[C@@H]3CC[C@H](C3)[C@@H]2C1=O | 12%[5.75 µM]
CCNc1nc(Oc2ccc(=O)n(C)n2)nc(N2CCOCC2)n1 | 4%
CCC(CC)C(=O)Nc1nnc(SCC(=O)N2CCN(c3ccccc3OC)CC2)s1 | 99%
COc1ccccc1NC(=O)Nc1ccc(Br)cn1 | -9%
O=C(CCCSc1nc(-c2ccco2)cc(C(F)(F)F)n1)NCc1cccs1 | 25%
CCC(=O)Nc1ccc(-c2nc(-c3ccccc3)n(CC(=O)N3CCCCC3)n2)cc1 | 22%
Cc1cc(-c2nnco2)c(C)n1-c1ccccc1 | 10%
CCCCn1c(SCC(=O)Nc2cccc(OC)c2)nc2ccc(N3CCOCC3)cc2c1=O | 100%
O=C(CSc1nnc(CCCO)n1-c1ccccc1)Nc1nccs1 | 1%
Cc1cccc(OCC(=O)Nc2ccc(N3CCN(S(C)(=O)=O)CC3)cc2)c1C | -6%
COc1ccccc1Cn1c(=O)c2ccccc2n2c(SCc3csc(C)n3)nnc12 | 77%
O=C(CNC(=O)C1CCCCC1)NC1=NCCS1 | -4%
O=c1cc(-c2ccccc2)nc2nc(-c3ccccc3)[nH]n12 | -1%
CC(C)Cc1n[nH]c(=O)[nH]1 | 5%
CCn1c(CNc2ccc(F)cc2)nnc1SCC(=O)Nc1ccc(OC)cc1OC | 69%
CCn1c(C(C)NC(=O)c2cccc(C)c2)nc2ccccc21 (centres undefined) | 34%
O=C(C1CCN(C2CC(=O)N(c3ccc(Cl)cc3)C2=O)CC1)N1CCOCC1 (centres undefined) | 14%
Cc1cc(N2CCC3(CC2)OCCO3)n2nc(C)c(-c3ccc(Cl)cc3)c2n1 | 63%
OCc1ccnc2c(O)cccc12 | -10%
CN(Cc1ccco1)C(=O)c1ccc(N2CCCC2=O)cc1 | 13%
CC(C)(C)NC(=O)Cn1ccc(=N)c2ccccc21 | -17%
Additional records.
SMILES | AmpC nodet inh
COc1ccc(CN2CCN(C(=O)c3cccs3)CC2)c(OC)c1OC | 31%
Cc1cc(Cl)ccc1OCC(=O)N1C(C)CCCC1C (centres undefined) | 32%
N#CC1=C(SCC(=O)NC23CC4CC(CC(C4)C2)C3)NC(=O)C(C#N)C12CCCCC2 (centres undefined) | -21%
O=C(Nc1cccc(OC(=O)c2ccco2)c1)c1ccco1 | -4%
CCOc1ccc(OCC)c(NC(=O)CSc2nc3c(c(=O)n(C)c(=O)n3C)n2C(C)C)c1 | 112%
CCCCCCCCCCCCCC(=O)O | 3%
CC(=O)Nc1cc2c(cc1C(=O)c1ccccc1)OCCO2 | 7%
Cc1ccc(NC(=O)c2oc3ccc(S(=O)(=O)N4CCOCC4)cc3c2C)cc1C | 31%
Cc1cccc(-n2c(CCCN3C(=O)c4ccccc4C3=O)nc3ccccc3c2=O)n1 | 39%
Cc1nc2ccccc2nc1N1CCC(C)CC1 | 9%
Cc1ccc(S(=O)(=O)N2CCCC2C(=O)Nc2nc3c(s2)CCCC3)cc1 (centres undefined) | 30%
CCN(Cc1ccccc1)C(=O)CSc1nc(C)cc2c1C(=O)OC2 | 26%
CCOC(=O)CSC(CC)C(=O)Nc1nnc(C(C)C)s1 (centres undefined) | 7%
C[N+](C)(C)c1cc2c(nn1)Nc1ccccc1S2 | 6%[5.75 µM]
CCOC(=O)N1CCN(CC(=O)Nc2ccc(OC)cc2)CC1 | 7%
CN(C(=O)c1ccncc1)c1ccccc1 | -10%[5.75 µM]
CCOC(=O)C(CC)n1cnc2c(nnn2-c2ccc(C)cc2)c1=O (centres undefined) | 15%
CCN(CC)CCCNC(=O)c1cn(C)c2ccc(S(=O)(=O)N(C)C)cc2c1=O | 1%
OCCN1CCN(C(c2cccs2)c2ccc3cccnc3c2O)CC1 (centres undefined) | 13µM*
CCOC(=O)N1CCC2(CC1)C(C#N)=C(N)Oc1c2c(C)nn1-c1cccc(Cl)c1 | 29%

Entries from the list above containing fluorine:
SMILES | AmpC nodet inh
Cc1c(NC(=O)c2cnn3c2NC(c2ccco2)CC3C(F)(F)F)c(=O)n(-c2ccccc2)n1C (centres undefined) | 41%
CC(=O)NC1(C(F)(F)F)NC(=O)N(CC(C)C)C1=O (centres undefined) | -4%
CN(C)c1nc2c(c(=O)[nH]c(=O)n2C)n1Cc1ccc(F)cc1 | 0%
O=C(CCCSc1nc(-c2ccco2)cc(C(F)(F)F)n1)NCc1cccs1 | 25%
CCn1c(CNc2ccc(F)cc2)nnc1SCC(=O)Nc1ccc(OC)cc1OC | 69%

Following part.
SMILES | AmpC nodet inh
O=C(O)CCC(NS(=O)(=O)c1ccc(-c2ccccc2)cc1)C(=O)O (centres undefined) | -1%
CCOC(=O)N1CCN(S(=O)(=O)c2ccc(OCC(=O)OC)c(C)c2)CC1 | 56%
COC(=O)[C@@]1(Cc2ccccc2)[C@H]2c3cc(C(=O)N4CCCC4)n(Cc4ccccc4)c3C[C@H]2CN1C(=O)c1ccccc1 | 165%
c1ccc2[nH]cnc2c1 | -4%
CCN(CC(=O)Nc1ccc2c(c1)OCCO2)c1nc(-c2cccnc2)nc2ccccc12 | 123%
O=C(O)c1cc(-c2cccs2)nc2cc3c(cc12)OCCO3 | 5%
Cc1noc(COc2ccc(OCc3nc(C)no3)cc2)n1 | 17%
C=CCN1CC(O)=C(c2ccccc2)C1=N | -17%
Cc1ccc(-n2ncc3c(NCc4ccco4)ncnc32)c(C)c1 | 8%
CCOC(=O)CSC(CC)C(=O)Nc1nnc(CC)s1 (centres undefined) | 5%
N#Cc1nc(-c2ccco2)oc1N1CCN(Cc2ccccc2)CC1 | 58%
O=C1CCCCC(=O)N(c2ccccc2)c2ccccc21 | 4%
Nc1c(C2=NCCO2)nnn1Cc1ccccc1 | -6%
CCc1nc(SCC(=O)c2cc(C)ccc2C)n[nH]1 | -3%
CCC(=O)N1CCc2cc(S(=O)(=O)N3CCc4ccccc4C3)ccc21 | 39%
Cc1[nH]c(=O)[nH]c(=O)c1CSc1nnc([C@H](CC(C)C)NC(=O)OC(C)(C)C)o1 | 12%
CN(c1ccc(F)cc1)S(=O)(=O)c1ccc2[nH]cc(C(=O)O)c(=O)c2c1 | -19%
CC(=O)Oc1ccc(NC(=O)Cc2ccccc2)cc1 | -16%
Cc1ccccc1-c1nc(CS(=O)(=O)CC(=O)NCc2ccc3c(c2)OCO3)c(C)o1 | 14%
CCN1C(=O)CC(n2c(C)nc3ccccc32)C1=O (centres undefined) | -4%

Reprinted from the part before: five entries, followed by the next part.
SMILES | AmpC nodet inh
Cc1[nH]c(=O)[nH]c(=O)c1CSc1nnc([C@H](CC(C)C)NC(=O)OC(C)(C)C)o1 | 12%
CN(c1ccc(F)cc1)S(=O)(=O)c1ccc2[nH]cc(C(=O)O)c(=O)c2c1 | -19%
CC(=O)Oc1ccc(NC(=O)Cc2ccccc2)cc1 | -16%
Cc1ccccc1-c1nc(CS(=O)(=O)CC(=O)NCc2ccc3c(c2)OCO3)c(C)o1 | 14%
CCN1C(=O)CC(n2c(C)nc3ccccc32)C1=O (centres undefined) | -4%
O=C(CSc1nnc2scc(-c3ccccc3)n12)Nc1nsc(-c2ccccc2)n1 | 20%
O=C(Nc1nsc(-c2ccccc2)n1)c1cccs1 | -15%
COc1ccccc1N1CCN(C(c2ccc(F)cc2)c2nnnn2C(C)C)CC1 (centres undefined) | 80%
O=C(CN1CCN(c2ccccn2)CC1)NC1CCCC1 | 10%
COc1cc(C(=O)Nc2ccc(NC(=O)c3ccco3)nc2)cc(OC)c1OC | 8%
Cn1cccc1C(=S)N=P(C1CCCCC1)(N1CCOCC1)N1CCOCC1 | 107%
O=C(NCCN1CCCC1=O)Nc1ccccc1 | -2%
Cc1ccccc1Oc1ccc(S(=O)(=O)NCCC(=O)O)cc1 | 10%
C=CCNc1ncnc2ccc(Br)cc12 | 10%
CCOC(=O)Nc1nnc(-c2cccc(OC)c2)s1 | 1%

Screening results as filed in PubChem BioAssay.
